# VACV Venus inh = vaccinia inhibition (Venus reporter); 330,000 compounds, 0.46% hits; Vaccinia virus Venus reporter expression, fluorescence; Potency, µM (titrated, usually from 36.5 µM), for the others: at the highest dose activity change, negative = inhibition, actives largely listed as inhibitors; active means well fitted inhibition curve with a large enough effect; inconclusive means small, poorly fitted or top-dose-only effect; inactive means no such curve, though single readings can be large or run the other way; tested in A549 cells; also: nearly all actives have a fitted effect of over 30% in size; inactives centre near -10
# Vaccinia mCherry = inhibitors of vaccinia virus infection (mCherry reporter signal); 310,000 compounds, 0.63% hits; Vaccinia virus mCherry reporter infection, fluorescence; about a quarter of the inactives have no number; Potency, µM (series often up to 36.5 µM), without a hit: at the highest dose activity change, negative = inhibition, actives largely listed as inhibitors; AID 720579; active = well fitted inhibition curve with a large enough effect; inconclusive = small, poorly fitted or top-dose-only effect; inactive = no such curve, though single readings can be large or run the other way; tested in A549 cells; also: nearly all actives have a fitted effect of over 35% in size; inactives centre near -10
# * hit, by the source's call; i = inactive; ? = inconclusive; . = not tested or not shown; & = joins results of further samples; [ ] = remark or other dose. % is scaled to controls: 0 for no effect and ±100 for the full control effect; potency is read from the fitted curve at half-maximal effect.
# Sample of the layout (4 entries):
# Each structure is followed by: VACV Venus inh	Vaccinia mCherry
- CNCc1cc(C)n(-c2cc(S(=O)(=O)N3CCOCC3)ccc2N2CCCC2)c1C
  -10%	-17%
- CN(CC(=O)Nc1cccc(F)c1)C(=O)c1cc(S(=O)(=O)N(C)C)ccc1N1CCCC1
  -7%	-13%
- CCc1cc2c(=O)c(-c3nc4ccccc4n3C)c(C)oc2cc1OC(C)=O
  -16%	-4%
- CCN1CCN(c2nc3c(C)cccn3c(=O)c2/C=C(\C#N)C(=O)NCCCOC)CC1
  -15%	-14%

# The listing, from the first entry:
# Each structure is followed by: VACV Venus inh	Vaccinia mCherry
- CNCc1cc(C)n(-c2cc(S(=O)(=O)N3CCOCC3)ccc2N2CCCC2)c1C
  -10%	-17%
- CN(CC(=O)Nc1cccc(F)c1)C(=O)c1cc(S(=O)(=O)N(C)C)ccc1N1CCCC1
  -7%	-13%
- CCc1cc2c(=O)c(-c3nc4ccccc4n3C)c(C)oc2cc1OC(C)=O
  -16%	-4%
- CCN1CCN(c2nc3c(C)cccn3c(=O)c2/C=C(\C#N)C(=O)NCCCOC)CC1
  -15%	-14%
- CCCn1nc(C(=O)NCc2ccc3c(c2)OCO3)c2ccccc2c1=O
  -6%	-5%
- C=CCn1c(SCC(=O)c2cc(C)n(Cc3cccs3)c2C)nnc1-c1ccncc1
  -15%	-21%
- O=C1CC2(CCN(C(=O)COc3ccc(Cl)cc3)CC2)Oc2ccccc21
  -2%	3%
- COc1ccc(-c2noc(-c3cccnc3N3CCN(c4ccc(OC)cc4)CC3)n2)cc1
  -12%	-26%
- CC(c1ccccc1)N(CCC(c1ccccc1)C1CCOC(C)(C)C1)C(=O)c1ccco1 (centres undefined)
  -9%	-13%
- Cc1ccc(NC(=O)CCN2C(=O)c3cccc([N+](=O)[O-])c3C2=O)c(Br)c1
  -16%	i
- CC1CCN(c2ccc(C(=O)O)cc2N)CC1
  3%	1%
- CCOC(=O)/C=C1\SCC(=O)N1CC(=O)NC1CCCCC1
  -9%	-4%
- C=CCNC(=S)NC(=O)c1oc2ccccc2c1C
  -11%	-3%
- CC1CN(/C=C/C(=O)C(F)(F)F)CC(C)O1 (centres undefined)
  6%	-10%
- CCOc1ccccc1-n1nnnc1SCC(=O)OC
  -3%	-2%
- CCCCSC(=S)N(C)C1CCS(=O)(=O)C1 (centres undefined)
  -12%	-15%
- O=C1CCC(C(=O)NCCN2C(=O)S/C(=C\c3cccnc3)C2=O)=NN1
  2%	-11%
- O=C1C(Cc2ccccc2)Nc2ncnc(N3CCCCC3)c2N1Cc1ccc(Cl)cc1 (centres undefined)
  -7%	-28%
- CC(Sc1nc2ccccc2[nH]1)C(=O)Nc1ccccc1F (centres undefined)
  -6%	-3%
- CCOc1ccc(NC(=O)Cn2c(=O)cc(C)c3c(C)nn(-c4ccc(CC)cc4)c32)cc1
  -1%	i
- CC[C@]12c3[nH]c4ccccc4c3CCN1C(=O)C(CC(=O)NCCCN(C)C)C[C@@H]2C(=O)N1CCN(C(=O)c2ccco2)CC1 (some centres undefined)
  -5%	-5%
- Cc1cccc(NS(=O)(=O)c2ccc(-n3cccn3)cc2)c1C
  -22%&-9%	-7%&-11%
- CCOC(=O)/C(=N\Nc1cc(Cl)ccc1Cl)N1CCN(C)CC1
  -8%	i
- O=C(c1ccc2c(c1)OCO2)N1CCC2(CC1)OCCO2
  -9%	i
- COc1ccccc1N1CCN(C(=O)c2ccc3c(c2)N(Cc2cc(C)ccc2C)C(=O)c2ccccc2S3(=O)=O)CC1
  -19%	-18%
- O=C(CSc1nnc(COc2cccc3cccnc23)o1)N1CCCC1
  -5%	-7%
- O=C(Nc1ccc(N2CCOCC2)cc1)c1ccc(S(=O)(=O)NCc2ccco2)cc1
  4%	i
- FC(F)(F)c1ccc(-c2cccc3c2C2CC3CCN2Cc2ccccc2)cc1 (centres undefined)
  -12%	?
- COCCN1C=C(C(=O)OC)C(c2ccccc2C(F)(F)F)C(C(=O)OC)=C1
  -8%	-16%
- Fc1ccc(-c2nc(Nc3cccc(C(F)(F)F)c3)nc3c2COc2ccccc2-3)cc1
  -15%	-10%
- OCC[C@@H]1C[C@H](O)[C@@H](O)[C@@]2(OCc3cc(Cl)ccc32)O1
  -4%	i
- COc1ccc(CNC(=O)Cn2nc(Cc3cccnc3)c3ccccc3c2=O)cc1
  -4%	-4%
- Cc1cc(=O)n2[nH]c(-c3ccsc3-n3c(C)ccc3C)cc2n1
  17%	-11%
- CCOc1cc(OCC)cc(C(=O)N2CCC[C@H]2C(=O)N2CCC[C@H]2C(=O)N[C@H](C)c2ccccc2)c1
  -1%	-5%
- CC(=O)c1c(C)[nH]c(C(=O)COC(=O)CCCOc2ccccc2)c1C
  -23%	-19%
- CCNC(=S)N1CCN(S(=O)(=O)/C=C/c2ccccc2)CC1
  -21%	-13%
- Cc1ccc(C)c(N2CCN(C(=O)C3CCN(c4nc5ccc(C)cc5[nH]4)CC3)CC2)c1
  -26%	-27%
- c1ccc(-n2nnnc2-c2cccc3ccccc23)cc1
  -25%	?
- Cc1ccc(-n2c(C)cc(C(=O)COc3cccnc3[N+](=O)[O-])c2C)cc1
  -23%	?
- O=C(Nc1cccnc1Oc1ccc(Cl)cc1)c1cccc2ccccc12
  -1%	-15%
- O=C(Oc1ccccc1[N+](=O)[O-])c1cccnc1
  0%	-1%
- C/C(=C\C(=O)c1ccc(Cl)s1)N(C)C
  -12%	i
- Cc1cccc(-c2noc(CN(C(C)C)S(=O)(=O)c3ccc(F)cc3)n2)c1
  -19%	.
- COC(=O)C1(C(O)C(=O)c2ccc(C)cc2C)CCCCC1 (centres undefined)
  -15%	-15%
- Cc1c(C(=O)Nc2ccccc2Cl)oc2ccc(S(=O)(=O)N3CCC4(CC3)OCCO4)cc12
  -17%	i
- NC(=O)c1ccc(NCC2COc3ccccc3O2)c([N+](=O)[O-])c1 (centres undefined)
  -8%	?
- CCNc1nc(NCC)n2c(SCc3nc4ccccc4c(=O)[nH]3)nnc2n1
  -11%	.
- COc1ccc(Cl)cc1NC(=O)CN1C(=O)COc2ccc(S(=O)(=O)NC3CCCC3)cc21
  6%	-9%
- COCCc1nc2ccc(C(=O)N(C)Cc3cccc(-n4cccn4)c3)cc2o1
  -14%	i
- Brc1ccc(-c2cn3cc(Cc4ccccc4)sc3n2)cc1
  -8%	-8%
- COc1ccc(C2=NOC(Cn3nc(C(=O)NCc4cccc(Br)c4)cc3-c3ccccc3)C2)cc1 (centres undefined)
  -9%	-3%
- Cn1c(Cn2cnc([N+](=O)[O-])n2)nnc1SCC(=O)Nc1ccccc1
  0%	-1%
- COc1cc(C(=O)Nc2ccccc2C2COC(=O)C2=N)cc(OC)c1OC (centres undefined)
  -7%	i
- CCOc1ccc2[nH]cc(S(=O)(=O)c3ccc(F)cc3)c(=O)c2c1
  -15%	-8%
- Cc1cccc(NC(=O)CSc2nnc(-c3ccco3)c(-c3ccco3)n2)c1
  -8%	-14%
- COc1ccc(NC(=O)CCS(=O)(=O)c2ccc3c(c2)n(C)c(=O)c(=O)n3C)cc1Cl
  ?	?
- CC1(C)CC(=O)C=C(c2ccc(Cl)c(C(F)(F)F)c2)C1
  -9%	-27%
- OCCSc1ncnc2c1oc1ccccc12
  -4%	-22%
- FC(F)(F)c1cccc(Nc2nc3nonc3nc2Nc2ccc(Cl)cc2)c1
  1.8µM*	2µM*
- Nc1cc(N)cc(-c2nc3ccccc3o2)c1
  -2%	14%

# Other results follow.
# Each structure is followed by: VACV Venus inh	Vaccinia mCherry
- O=C(CNc1cccc(Cl)c1)NNC(=S)NCc1ccccc1
  1%	-18%
- O=C(c1cc2sccc2n1Cc1ccc(F)cc1)N1CCCc2ccccc21
  -15%	-28%
- CNC(=S)N(CCN(C)C)Cc1cc2cc3c(cc2[nH]c1=O)OCO3
  -3%	i
- COc1ccccc1N(Cc1cc(=O)[nH]c2ccccc12)C(=O)c1ccccc1
  -8%	-2%
- CCOC(=O)[C@H]1[C@H]2COc3ccc(OC)cc3[C@@H]2N2C(=O)CN(Cc3ccc(Cl)cc3)C(=O)[C@@]12C
  -15%	-3%
- CCN(CC)S(=O)(=O)c1ccc2c(c1)N(CC(=O)N1CCN(c3cc(Cl)ccc3C)CC1)C(=O)CO2
  -16%	-11%
- COc1ccc(NC(=O)C2=NN(C3CCS(=O)(=O)C3)C(=O)CC2)cc1S(N)(=O)=O (centres undefined)
  -6%	-14%
- COc1ccc(C(C)C)cc1S(=O)(=O)N1CCC(C(=O)NCC2CCCO2)CC1 (centres undefined)
  -18%	-3%
- CC(=O)c1cc(-c2ccccc2)n(CC(=O)N2CCC(C)CC2)c1C
  -4%	-7%
- Cc1ccccc1-n1nc(C)c2c1NC(=O)CSC2c1ccccc1C(F)(F)F (centres undefined)
  -12%	-25%
- Cc1ccc(S(=O)(=O)N2CCOCC2)cc1C(=O)N(Cc1nnc(-c2ccccc2Cl)o1)C1CC1
  -21%	i
- Cc1cc2occ(CC(=O)NC3CCCc4ccccc43)c2cc1C (centres undefined)
  -22%	-9%
- COc1cccc(C2CC(=O)N3CN(c4ccccc4F)CSC3=C2C#N)c1 (centres undefined)
  7%	6%
- CC1=NN(C(C#N)c2cccc([N+](=O)[O-])c2)C(C)(C)C1 (centres undefined)
  -6%	-21%
- Cc1ccc(CNC(=O)CCCCn2c(=O)c3ccccc3n(Cc3ccc(C)cc3)c2=O)cc1
  29%	9%
- C/C(=C\c1ccc(C(=O)O)cc1)c1ccc2c(c1)C(C)(C)CCC2(C)C
  -24%	-6%
- Cc1ccc(CSc2nc3ccccc3c(=O)n2C)cc1
  -12%	-17%
- COc1ccc(OC)c(NC(=O)c2cccc(S(=O)(=O)N(Cc3ccccc3)c3ccccc3OC)c2)c1
  -21%	-1%
- C[C@@H]1CCC(=O)N(C[C@@H](C)CC#N)CC1
  -4%&-21%	-10%
- CC(C)c1nc2ccc(C(=O)NC(C)c3ccccc3)cc2o1 (centres undefined)
  -6%	-17%
- O=C(O)C[C@H]1c2ccccc2S(=O)(=O)N1C1CCCCC1
  0%&1%	-5%
- Cc1cccc(NC(=O)CC2CCC2)c1
  -9%	-15%
- COc1ccc(-c2nc3n(c(=O)c2C#N)CCS3)cc1OC
  -22%	-4%
- CSc1ccccc1C(=O)NCc1ccccc1
  -14%	0%
- CCOc1ccc(N=C2SCCCN2C(=O)c2c(CC)noc2C)cc1
  -7%	i
- C[C@H]1NS(=O)(=O)c2ccc(Br)cc2O[C@H]1c1ccccc1
  -12%	?
- CC1(C)OC(=O)C2=C(C[C@@H](C3CC3)O[C@H]2c2ccc(Cl)cc2)O1
  -3%	-2%
- Cc1nnc(SCc2cn3ccsc3n2)n(N)c1=O
  -12%	.
- CCC1Nc2ncnc(N3CCN(c4ccccc4)CC3)c2N(Cc2ccc(OC)cc2)C1=O (centres undefined)
  -19%	-16%
- COc1ccc(NC(=O)N(C)C[C@H]2Oc3ccc(NS(=O)(=O)c4cn(C)cn4)cc3C(=O)N([C@H](C)CO)C[C@@H]2C)cc1
  -5%	-16%

# Reformatted: three of the compounds above.
structure: O=C(O)C[C@H]1c2ccccc2S(=O)(=O)N1C1CCCCC1
  VACV Venus inh: 0%&1%	Vaccinia mCherry: -5%

structure: CCOc1ccc(N=C2SCCCN2C(=O)c2c(CC)noc2C)cc1
  VACV Venus inh: -7%	Vaccinia mCherry: i

structure: C[C@@H]1CCC(=O)N(C[C@@H](C)CC#N)CC1
  VACV Venus inh: -4%&-21%	Vaccinia mCherry: -10%

# Next records
SMILES	VACV Venus inh	Vaccinia mCherry
c1ccc(C(c2nnnn2Cc2ccco2)N2CCN(c3nc4ccccc4s3)CC2)cc1 (centres undefined)	?	?
COc1ccccc1N(CC(=O)N/N=C/c1ccccc1C(=O)O)S(C)(=O)=O	-19%	-3%
O=C(CN(Cc1ccccc1Cl)C(=O)Cn1nnc(-c2cccs2)n1)NCC1CCCO1 (centres undefined)	-15%	i
COC(=O)c1c(CSc2ccc(C)c(C)c2)noc1C(=O)NCc1ccc(OC)cc1	-14%	-21%
COc1ccc(C(=O)OCC(N)=O)cc1[N+](=O)[O-]	-7%	-7%
COc1cc2oc(=O)cc(-c3ccc(-c4ccc(O)cc4)cc3)c2c(OC)c1OC	-11%	i
Cc1cc(=O)oc2ccc(OCC(=O)N3CCC(C)CC3)cc12	-11%	.
O=C(COc1ccc(Br)cc1Cl)NCCCN1CCOCC1	-12%	-5%
O=C(COc1ccc(Cl)cc1Cl)NCCCNC(=O)c1cnccn1	-13%	-14%
CCOc1ccc(C(C)C)cc1S(=O)(=O)Nc1cccc(-c2ccc(N3CCOCC3)nn2)c1	?	?
O=C(COC(=O)c1ccc(Cl)c(S(=O)(=O)NCc2ccccc2)c1)NC1CC1	-5%	-10%
CC(=O)C1=C(C)NC(SCC(N)=O)=C(C#N)C1CC(C)C (centres undefined)	-15%	-2%
Cc1cc(=O)c2ccccc2n1Cc1ccccc1	-20%	i
CCCCNC(=O)C1CC(=O)N(C2CCCC2)C1 (centres undefined)	-14%	-9%
COc1ccc(C(=O)NCCCNC(=O)c2cccnc2)cc1Br	-5%	1%
O=C(NCc1ccccc1)c1cc(C2COCCN2C(=O)OCCF)on1 (centres undefined)	-6%	-3%
CCc1cc2c(=O)n(-c3ccc(C)cc3)cnc2s1	-12%	.
O=C(NC(=S)NCc1ccc(F)cc1)c1ccccc1	-8%	-13%
COc1cccc(C(=O)N/N=c2/oc3ccccc3cc2C(N)=O)c1	-11%	-5%
O=C(CCc1ccccc1)Nc1ccccc1C(F)(F)F	-1%	i
COc1ccc(CN2CCC(=O)N([C@H](CO)c3ccccc3)CC2)cc1OC	4%&-12%	-2%
Cc1ccc(NC(=O)CSc2nc3ncc(Br)cc3[nH]2)cc1C	0%[7.34 µM]	-3%[7.34 µM]

# Source: PubChem
